Anaer choline gr = growth inhibitors of anaerobic choline-fed gram-negatives, minimal medium, absorbance | Gram-negative bacterium anaerobic choline minimal medium; stronger effect = lower value; many inactives read as strong as hits in the columns shown | calls only | hit rate 0.2% among 55,000 | AID 1963822, 2024;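 active = growth z-score on choline under -2 at 7 or 20 h with little or no fall on glycerol, limits in tiers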;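 also: stock transfer was 300 nL into about 50 µL; the organism is E. coli; final concentration not given here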
Anaer choline gr early = further read-out of Anaer choline gr, marked with its call; z-score; measured here: choline growth z-score, timepoint 1;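 score of optical density at 7 h as mean of two plates; lower means less growth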
* = called active by the depositor; i = inactive; & = joins results of further samples.

Structure	Anaer choline gr	Anaer choline gr early
C=C(C)Cn1nc(SCC)n2c(=O)c3c(nc12)-c1ccccc1CC3(C)C	i	0.59
CC1CCCN(S(=O)(=O)c2cc(C(=O)N3CCCc4ccccc43)n(C)c2)C1 (stereo not given)	i	0.82
CC1CCN(S(=O)(=O)c2ccc3c(c2)CCC(=O)N3CC(=O)N2CCOCC2)CC1	i	-0.37
CCc1cc(Cl)c(OC)c(C(=O)NCC2CCCN2CC)c1O (stereo not given)	i	-1.5
Cc1ccc(-c2cc(N3CCC(C(=O)NC4CCCCC4)CC3)ncn2)cc1	i	0.09
CC(=O)Nc1ccc2c(c1)nc(CN1CCN(C)CC1)n2C(C)C	i	0.79
COc1ccc(CNC(=O)C2CCN(C3=NS(=O)(=O)C(c4ccc(OC)cc4)=C3C)CC2)cc1	i	-0.03
Cc1ccc(NS(=O)(=O)c2ccc3c(c2)c(=O)n(CC(=O)N2CCCC2)c(=O)n3C)nc1	i	0.07
Cc1onc(-c2c(F)cccc2Cl)c1C(=O)N1CCCC1c1cc(C(C)C)on1 (stereo not given)	i	-0.44
COC(=O)C1=C(C)NC(C)=C(C(=O)OC2CCCN(Cc3ccccc3)C2)C1c1cccc([N+](=O)[O-])c1 (stereo not given)	i	0.81&-0.39
CC(C)CNC(=O)Cn1cnc2c(nc3n2CCCCC3)c1=O	i	-0.55
COc1ccc(NC(=O)CCS(=O)(=O)c2cc(-c3cc(C)no3)ccc2C)cc1OC	i	-0.41
O=C(Cn1ncc(N2CCSCC2)c(Cl)c1=O)NCc1cccs1	i	-0.02
Cc1ccc(-c2cncc(C(=O)Nc3cc(F)cc(F)c3)c2)cc1	i	0.68
CC(C)(C)NCc1ccc(-c2ccccc2)o1	i	-0.7
CC(C)NC(=O)CN1C(=O)CCc2cc(S(=O)(=O)N3CCCCC3C)ccc21 (stereo not given)	i	-0.63
O=C(Nc1ccc2c(c1)OCO2)c1cccc(-c2cc(NC3CCCCC3)ncn2)c1	i	1.1
CCOc1ccc(NC(=O)c2ccccc2OCc2nc(-c3ccccc3)no2)cc1	i	1.4
COc1ccc(Cl)cc1NC(=O)c1sc2nc(-c3ccc(F)cc3)cn2c1C	i	0.6
Cn1c(=O)c2c(SCC(=O)NCC3CCCO3)nc(C3CCCC3)nc2n(C)c1=O (stereo not given)	i	0.52
CCCC(CCC)C(=O)O	i	0.78&0.13&0.49&-0.87&0.54
Cc1nn(-c2ccccc2)c2c1C(C(=O)NC1CCCC1)N(c1ccc(Cl)cc1)C(=O)CS2 (stereo not given)	i	1.3
COc1ccc(C2=Nc3ccccc3NC(=O)C2)cc1	i	4.2
COc1ccc(OC)c(N2C=C(C#N)S(=O)(=O)c3ccc(F)cc32)c1	i	-0.18
CCC(=O)Nc1ccc(Nc2cc(N(C)C)nc(C)n2)cc1	i	0.3
CCCC(CCC)C(=O)NC1CC(=O)N(c2ccc3c(c2)OCCO3)C1 (stereo not given)	i	-0.64
CC(C)CCn1c(COc2ccc(Cl)cc2)nc2ccccc21	i	0.64
COc1ccccc1CN1C(=O)c2c(-n3cccc3)c3cc(C)ccc3n2CC1(C)C(=O)NC1CCC(C)CC1 (stereo not given)	i	-2.1
NC1CC(=O)N(c2ccc3c(c2)OCO3)C1 (stereo not given)	i	0.77
COc1ccc(-c2nc3c(s2)CN(C(=O)c2ccc(Br)cc2)CC3)cc1	i	1
O=C(NC1CC1)c1ccc2c(c1)OCCCO2	i	-0.98
CC(CN1C(=O)c2ccc(-c3ccccc3)n2CC1(C)C(=O)NC1CCCC1)c1ccccc1 (stereo not given)	i	1.5
COC(=O)c1ccccc1NC(=O)Cn1nc2c(Sc3ccccc3)nc3ccccc3n2c1=O	i	0.59
O=C1COc2ccc(S(=O)(=O)NC3CCCCC3)cc2N1Cc1noc(C2CC2)n1	i	-1.4
CCCn1c(=O)c2nscc2n(CC(=O)NC(C)CC)c1=O (stereo not given)	i	-0.49
CC(C)Cn1c(=O)c2sccc2n2c(CCC(=O)NC3CCCC3)nnc12	i	-0.85
O=C(Cn1nc2c(Sc3ccccc3)nc3ccccc3n2c1=O)Nc1ccc(Cl)cc1	i	-0.22
CC1CCCCN1CCNC(=O)CN1C(=O)CCCc2ccccc21 (stereo not given)	i	-0.59
Cc1ccc(-c2ccc(=O)n(C(C)C(=O)N3CCc4ccccc43)n2)cc1C (stereo not given)	i	0.42
CCc1ccc(-c2cc(C(F)(F)F)on2)cc1S(=O)(=O)N1CCC(C)CC1	i	-0.73
O=S(=O)(c1cccn2c(SCc3ccccc3F)nnc12)N1CCCCC1	i	0.79
COCCNC(=O)Cn1c(-n2nc(C)cc2C)nc2c(c1=O)CCCC2	i	-0.18
COc1ccc(S(=O)(=O)N2C[C@H]3CN(S(=O)(=O)c4ccccc4)C[C@@H](C2)O3)cc1	i	-0.11
CN(C)c1oc(-c2ccc(S(=O)(=O)N3CCc4ccccc4C3)cc2)nc1C#N	i	-0.81
CCSc1ncc2c(=O)n(C(CC)C(=O)N3CCC(C)CC3)cnc2n1 (stereo not given)	i	-1.3
COc1cccc(Cn2c(C)c(C3=CCN(S(=O)(=O)c4cccc5cccnc45)CC3)c3ccccc32)c1	i	1.1
O=C(NCc1ccc(Cl)cc1)c1nc(N2CCCC2)c2oc3ccccc3c2n1	i	1.8
CCCN(CCC)CCNC(=O)c1c(C)oc2ncnc(N3CCOCC3)c12	i	0.29
Cc1cc(N2CCN(c3ccccn3)CC2)n2nc(C(F)(F)F)c(-c3ccc(F)cc3)c2n1	i	-0.06
CCCn1c(=O)c2ccc(C(=O)NC(C)C)cc2n2c(SCc3ccccc3C)nnc12	i	0.26
CC(C)CCNC(=O)CCCCn1c(=O)c2ccccc2n(CC(=O)Nc2ccc(Cl)cc2)c1=O	i	0.54
S=c1nc[nH]c2c1cnn2-c1ccc(Cl)cc1	i	0.44
COc1ccc(CNC(=O)CSc2nc3cc(-c4ccccc4)sc3c(=O)n2C)cc1	i	0.11
Cn1nc(C(=O)NC2CCCc3ccccc32)c2c1-c1cc(F)ccc1SC2 (stereo not given)	i	1.4
COc1ccc(-c2noc(CSc3nc4cc5c(cc4c(=O)n3CC3CCCO3)OCO5)n2)cc1 (stereo not given)	i	0.04
COc1ccc(C2=C(C)C(N3CCC(C(=O)NCc4ccccc4Cl)CC3)=NS2(=O)=O)cc1	i	0.2

Later entries
Structure	Anaer choline gr	Anaer choline gr early
C=CCNc1ncccc1-c1nc(-c2ccc(OC)cc2)no1	i	1.1
O=C(O)c1ccc(S(=O)(=O)c2ccc(Cl)cc2)nc1	i	1.1
COCCn1c(CNC(=O)C2CCC2)nc2cccnc21	i	0.03
CC(C(=O)N1CCN(c2ccccn2)CC1)n1c(=O)c(C(F)(F)F)nc2ccccc21 (stereo not given)	i	-0.52
COc1ccc(S(=O)(=O)N2CCCC2c2c(C)noc2C)cc1OC (stereo not given)	i	0
O=C(CSc1nnc2ccc(-c3ccncc3)nn12)N1CCc2ccccc21	i	-0.37
COc1cccc(-c2cc(C(F)(F)F)n3ncc(C(=O)NCc4ccc(OC)c(OC)c4)c3n2)c1	i	-0.3
Cc1cc(C)c(S(=O)(=O)Nc2cnc(N3CCCC3)c(C(=O)O)c2)c(C)c1	i	0.24
CC(C)Cc1cc(-c2nn3c(-c4ccccc4Cl)nnc3s2)n[nH]1	i	-1.1
Cc1nn(-c2nc3ccccc3n2C)c2c1C(c1ccc(C(=O)O)cc1)CC(=O)N2 (stereo not given)	i	0.2
CCCCCCCCCCCCCCCCCC(=O)N[C@H]1CCOC1=O	i	0.85
O=C1CN(Cc2c(F)cccc2Cl)S(=O)(=O)c2ccccc2N1Cc1cccc(F)c1	i	2.1
CNC(=O)c1ccc(-c2nc3cc(NS(=O)(=O)c4ccc(F)c(Cl)c4)ccc3n2C)cc1	i	-1.7
Cc1ccc(CNC(=O)c2ccc3c(=O)nc4c(-c5ccccc5)n[nH]n4c3c2)cc1	i	0.35
CNC(=O)Cc1ccc(-n2c(=O)c3ccccc3n(CC(=O)NC3CCCCC3)c2=O)cc1	i	1
CCN1CCN(CCNC(=O)c2ccc(NC(=O)N3CCSc4nc(C)cc(C)c43)cc2)CC1	i	-0.25
O=C(c1ccc(N2CCc3ccccc3C2)nn1)N1CCc2ccccc21	i	1.4
CCS(=O)(=O)c1ccc(OCc2cc(=O)n3oc(C)cc3n2)c(NC(=O)CCC2CCCC2)c1	i	0.46
O=c1[nH]c2cc([N+](=O)[O-])c([N+](=O)[O-])cc2[nH]c1=O	i	-0.42&0.67
CCOC(=O)c1[nH]c(C)c(CCC(=O)Nc2ccsc2C(=O)OC)c1C	i	2.7
CCOC(=O)C1CCN(C(=O)CCS(=O)(=O)c2ccc3c(c2)CC(C)N3C(=O)C2CC2)CC1 (stereo not given)	i	0.22
CCCc1cc(C2CCCN2Cc2cn[nH]c2-c2ccc(OCC)cc2)no1 (stereo not given)	i	0.19
CCOC(=O)c1cc(-c2ccc(OC)c(S(=O)(=O)Nc3cccc(Cl)c3)c2)on1	i	-0.03
COCCn1cc(C(=O)CSc2nnc(-c3ccc4c(c3)OCCCO4)n2C)c2ccccc21	i	0.37

Exported field by field: 3 of the compounds above
smiles: Cc1nn(-c2nc3ccccc3n2C)c2c1C(c1ccc(C(=O)O)cc1)CC(=O)N2 (stereo not given)
  Anaer choline gr: i | Anaer choline gr early: 0.2

smiles: CC1CCCN(S(=O)(=O)c2cc(C(=O)N3CCCc4ccccc43)n(C)c2)C1 (stereo not given)
  Anaer choline gr: i | Anaer choline gr early: 0.82

smiles: Cc1onc(-c2c(F)cccc2Cl)c1C(=O)N1CCCC1c1cc(C(C)C)on1 (stereo not given)
  Anaer choline gr: i | Anaer choline gr early: -0.44

(list continues)
Structure	Anaer choline gr	Anaer choline gr early
COc1ccc(-c2noc(CN3CCC(C(=O)Nc4ccc(F)cc4)CC3)n2)cc1OC	i	-0.23
NCCCC(=O)O	i	-0.18
CCc1cnc2c(c1SC(C)CC)c(=O)n(C)c(=O)n2C (stereo not given)	i	-0.88
Cc1ccc(CCNC(=O)c2ccc(NC(=O)N3CC(C)Sc4ccccc43)cc2)cc1 (stereo not given)	i	-0.24
Cc1ccc(-c2cc(=O)[nH]c(Nc3nc(C)c4ccccc4n3)n2)cc1	i	1.2
CC(C)(NC(=O)C1CCCC1)c1nc2c(c(C(N)=O)n1)OCCO2	i	-0.05
CCc1ccc(CN2CCn3c(nnc3C(F)(F)F)C2)o1	i	-0.74
O=C(NCCn1c(-c2ccncc2)nc2cccnc21)Nc1ccccc1Br	i	0.4
CCOC(=O)C1CCCN(C(=O)c2sc3nc(-c4ccccc4)cn3c2C)C1 (stereo not given)	i	0.67
CC/C=C\C/C=C\C/C=C\C/C=C\C/C=C\CCCC(=O)O[C@H](COCCCCCCCCCCCCCCCC)COP(=O)([O-])OCC[N+](C)(C)C	i	-1.1
CN(C)C(=O)c1csc(S(=O)(=O)N2CCC(C(=O)NC3CC3)CC2)c1	i	-1.2
Cc1nn(-c2ccc3nnc(C)n3n2)c2c1C(c1ccc(OCc3ccc(Cl)cc3)cc1)CC(=O)N2 (stereo not given)	i	-0.5
CCSc1nnc(NC(=O)c2cc(S(=O)(=O)N3CCCC3)cn2C)s1	i	0.57
CCc1ccc(S(=O)(=O)c2cnc(N3CCN(c4ccccc4OC)CC3)nc2N)cc1	i	-0.12
Cc1ccc(-c2ccc(=O)n(CCc3nc(-c4ccccc4)no3)n2)cc1C	i	-0.44
Cc1ccc(C)c(S(=O)(=O)N2CCC3(CC2)NCCN=C3NCc2ccccc2F)c1	i	-0.28
Cc1noc2ncnc(N(C)Cc3ccccc3)c12	i	-0.88
COc1ccc(-c2noc(CSc3nc4[nH]ncc4c(=O)n3-c3ccc(F)c(F)c3)n2)cc1OC	i	0.14
CCc1ccc(Nc2nc(C)nc3onc(C)c23)cc1	i	-0.3
CN(C)C(=O)c1ccc2c(c1)N(CC(=O)NC1CCCC1)C(=O)CS2	i	-0.25
O=C1CN(C(=O)NC2CCCCC2)CCN1	i	-0.44
O=S(=O)(NCc1cccn1Cc1ccccc1)c1ccc2c(c1)CCCC2	i	0.61
O=C1NN(C(=O)Nc2ccc(Br)cc2)[C@@H](c2ccccc2)[C@@H]1c1ccccc1	i	0.8
O=S(=O)(c1ccc(-c2noc(-c3cnccn3)n2)cc1)N1CCCC1	i	0.09

Single records (already shown):
Record of `O=C1NN(C(=O)Nc2ccc(Br)cc2)[C@@H](c2ccccc2)[C@@H]1c1ccccc1` → Anaer choline gr: i; Anaer choline gr early: 0.8
Record of `Cc1noc2ncnc(N(C)Cc3ccccc3)c12` → Anaer choline gr: i; Anaer choline gr early: -0.88

Additional records
Structure	Anaer choline gr	Anaer choline gr early
COc1ccc(CNC(=O)C2CCN(Cc3nc(-c4ccc(Cl)cc4)oc3C)CC2)cc1	i	0.39
Cc1ccc(OCC(=O)NC(c2ccccc2)c2nnc(-c3ccccc3)o2)cc1 (stereo not given)	i	0.64
O=C(Nc1ccc2oc(-c3cccc(Cl)c3)nc2c1)c1ccc2c(c1)OCCO2	i	0.24
CC1CCC(NC(=O)Cn2nc(N3CCN(c4ccccc4)CC3)ccc2=O)CC1 (stereo not given)	i	-0.06

Not all compounds are listed, so the mix of outcomes need not match the whole.
